PV pol inh: poliovirus RNA polymerase inhibition. P03300. poliovirus polymerase elongation, fluorescence polarization; active compounds read low. % elongation, % (compound at 16.7 µg/mL). 0.66% of 150,000 active; in the data active = % elongation below about 90%; also: some results filed as inactive read as strong as hits
Target sequence (P03300 1749-2209 limits assumed): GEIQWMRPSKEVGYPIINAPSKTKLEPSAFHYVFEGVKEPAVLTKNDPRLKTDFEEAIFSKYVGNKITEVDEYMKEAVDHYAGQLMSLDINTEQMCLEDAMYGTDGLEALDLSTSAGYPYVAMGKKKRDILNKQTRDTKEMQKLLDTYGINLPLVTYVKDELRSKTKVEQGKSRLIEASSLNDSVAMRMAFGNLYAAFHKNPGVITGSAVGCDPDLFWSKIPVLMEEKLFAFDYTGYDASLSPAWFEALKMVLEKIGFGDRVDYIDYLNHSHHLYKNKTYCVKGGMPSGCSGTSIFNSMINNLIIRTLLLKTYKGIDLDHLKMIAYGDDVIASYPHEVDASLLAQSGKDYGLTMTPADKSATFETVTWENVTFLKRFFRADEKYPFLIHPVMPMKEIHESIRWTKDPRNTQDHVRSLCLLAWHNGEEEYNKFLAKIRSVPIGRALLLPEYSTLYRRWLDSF
Mtb MbtI inh: blocks the Mycobacterium tuberculosis siderophore enzyme MbtI. P9WFX0. 0.89% of 100,000 active. inhibition, %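 (about 17 µg/mL by stock and volumes)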. purified MbtI enzyme, fluorescence intensity read-out;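 active = above 50% in both replicates, above 80% if mildly self-fluorescent; inactive = the rest, strongly fluorescent compounds included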;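 also: 0% = mean of negative and 100% = mean of positive controls; one replicate is shown; some compounds called inactive have numbers as strong as hits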
MenB inh: Mtb MenB enzyme inhibition | MenB enzyme assay, absorbance read-out; some hits fall short of the stated cut | AID 540299 | P9WNP5 | inhibition, %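 (about 12 µg/mL by stock and volumes)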 | 0.43% of 100,000 active;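 active = mean of two replicates above 30%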;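 also: 0% = no compound and 100% = wells with inactive enzyme; the first replicate is given; strong numbers were not always called active; inactives centre near -10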
Target sequence (P9WNP5 whole entry, looked up): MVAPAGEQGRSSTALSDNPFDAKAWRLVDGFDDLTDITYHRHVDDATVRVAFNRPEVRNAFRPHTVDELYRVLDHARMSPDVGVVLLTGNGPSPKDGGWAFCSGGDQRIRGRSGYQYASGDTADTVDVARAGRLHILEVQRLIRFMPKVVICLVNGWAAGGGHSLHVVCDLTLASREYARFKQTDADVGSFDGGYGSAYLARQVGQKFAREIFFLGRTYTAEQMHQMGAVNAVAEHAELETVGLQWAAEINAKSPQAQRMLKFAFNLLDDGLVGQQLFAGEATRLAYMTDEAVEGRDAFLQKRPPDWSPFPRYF
PV pol inh intensity: also measured in PV pol inh; calls as there; % elongation; measured here: total intensity read-out; formula for this scale not given here;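 total fluorescence in place of polarization; lower means less elongation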
Numbers without * were called inactive; i = inactive; nt = no result given.

cpd	compound	PV pol inh	Mtb MbtI inh	PV pol inh intensity	MenB inh
1	CC1CCN(Cc2c(C(=O)N/N=C/C=C/c3ccccc3)nnn2-c2nonc2N)CC1	101	10	100	8
2	CCOc1ccc2[nH]c(=O)c(CNCCCO)cc2c1	102	81	101	-13
3	COc1ccc(CN(CCN)C2CC(C)N(C)CC2C)cc1 (configuration not stated)	103	-16	102	-9
4	O=C(O)CCC(=O)N(Cc1ccccc1)Cc1cn(-c2ccccc2)nc1-c1cccnc1	102	i	103	-5
5	NCCNCC1COC2(CCCCCCCCCCC2)O1 (configuration not stated)	100	0	103	5
6	CCOC(=O)COc1ccc2c(c1)C(=O)CC(C)(C)O2	105	104	108	8
7	CNCc1nc2ccc(Cl)cc2[nH]1	99	2	111	0
8	CCOC(=O)Nc1ccc2c(c1)N(CCCN(C)C)c1ccccc1CC2	101	-86	100	-46
9	COc1ccc2c(c1)C(C)(CC#N)C(=O)N2C (configuration not stated)	102	2	106	-9
10	Cc1sc2ncnc(Nc3ccccc3)c2c1C	105	nt	103	-4
11	O=C(Cc1nc2ccccc2n1C(F)F)c1ccccc1	105	14	98	10
12	CCn1c2c(c3ccc(OC)cc31)CCCC2=O	103	-18	104	-17
13	Cc1csc(SC(C)C(=O)Nc2ccc(S(=O)(=O)N3CCCC3)cc2)n1 (configuration not stated)	102	-1	105	5
14	CCOC(=O)C1CCCN(C(=O)C23CC4CC(CC(C4)C2)C3)C1 (configuration not stated)	103	-11	100	nt
15	O=C(c1ccc(F)c(F)c1)N1CCc2ccccc2C1	100	2	101	-11
16	N#Cc1cc(C(=O)c2cc(F)ccc2O)cn(C2CC2)c1=O	108	20	116	-25
17	COc1ccc(N2C(=O)c3ccccc3NC23CC2CC=CC23)cc1 (configuration not stated)	100	-8	104	5
18	Cc1ccc(NC2CC(C)Nc3cc(C)ccc32)cc1 (configuration not stated)	104	nt	107	-17
19	COc1ccc(Br)cc1C(=O)Nc1ccc(-c2nnc(-c3ccco3)o2)cc1	97	-29	103	-8
20	CC1(C)CC(=O)C(C=NCC2CCN(C(=O)c3ccccc3)CC2)=C(O)C1	104	2	102	-33
21	NC(=O)C1CCCN(C(=O)c2ccc3c(c2)NC(=O)CS3)C1 (configuration not stated)	101	1	103	-26
22	CC(C)NC(=O)CN1Cc2ccccc2C1=O	100	-10	104	12
23	CN(c1ccc(Cl)cc1)c1cc(=O)n(C)c2ccccc12	102	-1	97	-28
24	Cc1c(C)n(Cc2ccc(Cl)cc2)c2ccc(C(=O)NCc3ccco3)cc12	101	41	98	10
25	CN1CCc2c(sc3c2C(=O)NC(/C=C/c2ccco2)N3)C1 (configuration not stated)	104	17	106	-74
26	Cc1ccc(CSc2nnc(-c3ccncc3)n2CC2CCCO2)cc1 (configuration not stated)	103	-6	102	-30
27	COc1ccc(N=Cc2ccc(C)o2)cc1	99	8	104	10
28	Cc1nc(SCC(=O)c2ccc(NS(C)(=O)=O)cc2)n(C2CCCCC2)c1C	103	-6	108	-9
29	OCCOc1ccc(OCCO)cc1	99	-11	104	-19
30	Cc1ccc(NCc2cccn2-c2nnc(N3CCCCC3)s2)cc1	101	0	103	-17

Seven entries out of the list, sorted by SMILES length, smallest number first.
cpd	compound	PV pol inh	Mtb MbtI inh	PV pol inh intensity	MenB inh
29	OCCOc1ccc(OCCO)cc1	99	-11	104	-19
22	CC(C)NC(=O)CN1Cc2ccccc2C1=O	100	-10	104	12
30	Cc1ccc(NCc2cccn2-c2nnc(N3CCCCC3)s2)cc1	101	0	103	-17
26	Cc1ccc(CSc2nnc(-c3ccncc3)n2CC2CCCO2)cc1 (configuration not stated)	103	-6	102	-30
17	COc1ccc(N2C(=O)c3ccccc3NC23CC2CC=CC23)cc1 (configuration not stated)	100	-8	104	5
24	Cc1c(C)n(Cc2ccc(Cl)cc2)c2ccc(C(=O)NCc3ccco3)cc12	101	41	98	10
20	CC1(C)CC(=O)C(C=NCC2CCN(C(=O)c3ccccc3)CC2)=C(O)C1	104	2	102	-33

(more compounds)
cpd	compound	PV pol inh	Mtb MbtI inh	PV pol inh intensity	MenB inh
31	CC(C)(C)NC(=O)NCC(c1ccco1)N1CCc2ccccc2C1 (configuration not stated)	105	-2	106	-8
32	CCN(CC)S(=O)(=O)c1ccc(SC)cc1	104	0	104	6
33	O=C(/C=C/c1ccc(Cl)cc1Cl)NCc1cccnc1	106	2	104	nt
34	c1ccc(CCn2c(CSc3nc4ccccc4o3)nc3ccccc32)cc1	106	nt	109	-28
35	Cc1n[nH]c(C)c1NC(=O)CN(C)c1nc(-c2cccnc2)nc2ccccc12	nt	4	nt	-28
36	CC(C)CN1C(=O)c2ccc(C(=O)Nc3ccc(F)cc3)cc2C1=O	100	-13	99	-17
37	Cc1ccc(S(=O)(=O)N2CC3CCC2C3)cc1 (configuration not stated)	102	-17	106	0
38	CCOc1ccc2[nH]c(=O)c(CN(Cc3ccccc3OC)C(=O)N3CCCC3)cc2c1	102	4	104	6
39	Cc1[nH]c2ccccc2c1C1(O)C(=O)N(CCc2ccccc2)c2ccc(Br)cc21 (configuration not stated)	103	-11	105	2
40	CC1CN(C2CC(O)C(CO)O2)C(=O)NC1=O (configuration not stated)	101	nt	102	3
41	COc1cc2c(cc1OC)C(=NCCC(=O)O)NC(C)(C)C2	102	87	107	-9
42	CCCNC(=O)c1cc(-c2ccc(OC)cc2)n(CCCOC)c1C	101	2	103	-31
43	CCN(c1ccc(C)c(C)c1)S(=O)(=O)c1ccc2c(c1)oc(=O)n2C	103	2	105	-9
44	CNC(=O)COC(=O)c1ccc(Cl)c(Cl)c1	104	0	108	nt
45	COc1ccccc1N=c1scc(-c2ccco2)n1/N=C/c1ccco1	104	13	101	-60
46	CC1CCCCC1NC(=O)CN(C)S(=O)(=O)c1ccc2c(c1)c(=O)n(C)c(=O)n2C (configuration not stated)	102	-7	103	-17
47	Cc1ccc(O)c(C(=O)c2cnc3onc(-c4ccc(F)cc4)c3c2)c1	107	-21	116	-3
48	O=C(CCN1CCC(c2cccs2)=N1)c1cccs1	110	-6	107	-11
49	CCC(c1nnc(SCC(=O)Nc2nc(-c3ccc(OC)cc3)cs2)o1)N(C)C (configuration not stated)	101	46	100	-51
50	COc1ccc(-n2c(O)cnc2Nc2nc(C)cc(C)n2)cc1OC	100	-7	102	-1
51	CN(CC(=O)O)S(=O)(=O)c1ccc(Cl)cc1	100	-9	105	6
52	O=C1NC(=O)N(C2CCCCC2)C(=O)/C1=C/c1ccc(Br)cc1	100	34	96	-15
53	COc1ccc(/C=N/N2CCOCC2)cc1O	107	nt	107	-14
54	Cc1ccccc1NC(=O)/C=C\C(N)=O	104	99*	103	-8
55	Cc1cc(C=C(C#N)C#N)c(C)n1C1CCCC1	100	4	103	-6
56	CCN=C1NC(=O)C(CC(=O)NCCc2ccccc2)S1 (configuration not stated)	102	-5	98	-4
57	O=C(NCc1ccc(Cl)cc1)c1ccc(-n2cnnn2)cc1	102	-8	101	-7
58	CCOc1ccc(-c2ncccc2O)cc1	100	89	100	17
59	CCOC(=O)c1c(C)n(C)c2ccc(OCC(O)CN3C(=O)c4ccccc4S3(=O)=O)cc12 (configuration not stated)	100	2	103	-8
60	CCOC(=O)c1cc(-c2csc(CS(=O)(=O)c3ccccn3)n2)on1	102	-4	107	-8
61	O=C(CSC1=NC(=O)C(c2ccccc2)C(=O)N1)Nc1nc2ccccc2s1 (configuration not stated)	102	26	102	-4
62	Cc1cccc(C)c1NC(=O)CN(C)c1ccc(S(=O)(=O)N(C(C)C)C(C)C)cn1	104	3	95	-33
63	CC1CN=C(Nc2ccc(C(C)C)cc2)S1 (configuration not stated)	102	-6	106	nt
64	Nc1nc(-c2ccc(Cl)c(Cl)c2)cs1	99	-3	103	nt
65	CN(C)C(=O)Cn1nc(C(=O)O)c2ccccc2c1=O	106	10	106	-26
66	Nn1c(Cc2ccccc2)nc2sc3c(c2c1=O)CCCC3	98	-3	96	-7
67	COC(=O)c1ccc(N2CCN(C)CC2)c(NC(=O)c2ccc(C#N)cc2F)c1	103	-2	102	-24
68	CC(C)(C)OC(=O)N1CCC[C@H]1C(=O)OCc1ccc(Cl)cc1Cl	110	-2	113	-18
69	O=C1OC(c2ccccc2)OC(=O)C1=C/C=C/c1ccccc1 (configuration not stated)	99	74	99	-14
70	CCc1ccc(CN2CCC(N3CCCCC3)CC2)cc1	95	nt	85	-15
71	COC(=O)c1ccccc1NC(=O)N1CCCc2cc(C)ccc21	104	-1	105	-31
72	CCCn1c(SCCCC(=O)c2cccs2)n[nH]c1=O	103	-3	95	-7
73	C/C(N)=C(/C#N)C(=O)Cn1nc(C(=O)O)c2ccccc2c1=O	102	-1	99	-59
74	Cn1/c(=N/N=c2\oc3ccccc3n2C)oc2ccccc21	101	6	105	18
75	CCOC(=O)N1CCC(n2c(SCC(=O)Nc3nccs3)nc3ccsc3c2=O)CC1	102	-12	103	-8
76	CC1CCCCC1NC(=O)CCCn1ncn2c(cc3occc32)c1=O (configuration not stated)	104	10	106	-9
77	O=C(CN1C(=O)NC(Cc2c[nH]c3ccccc23)C1=O)c1ccc(F)cc1 (configuration not stated)	106	-13	115	-29
78	O=C(COC(=O)C1CCC(=O)N1)Nc1ccc(Cl)cc1Cl (configuration not stated)	103	-7	106	nt
79	COc1cccc(NC(=O)CNC(=O)Cn2cnc3sc4c(c3c2=O)CCCC4)c1	102	-4	95	-41
80	COc1ccc(N2CC(NC(=O)Nc3ccc(S(=O)(=O)NC(C)=O)cc3)CC2=O)cc1 (configuration not stated)	100	-1	100	1
81	Cc1cc(C(=O)CSc2nc3ccc(Cl)cc3[nH]2)c(C)n1Cc1ccco1	107	3	112	3
82	COc1ccnc(C(=O)O)c1	103	-5	107	-16
83	Cc1ccc(CN2C(=O)CCC2C(=O)NC(C)C)cc1 (configuration not stated)	102	2	105	-9
84	CC(=O)Nc1ccc(/C=N/OCC(=O)Nc2ccc(C)cc2)cc1	103	-25	104	-14
85	NCC(O)CC(=O)O (configuration not stated)	101	-13	103	8
86	CC1C(O)=C(c2nc3ccccc3[nH]2)c2nc(=O)c3ccccc3n21 (configuration not stated)	59	-7	228	-31
87	O=C(CSC1CCCC1)N1CCCC1	103	-15	105	nt
88	O=C(O)CSc1nc2cc(N3CCOCC3)c(F)cc2[nH]1	100	-7	98	-27
89	CC(C)NC(=S)N=Nc1c(O)[nH]c2ccc(C(C)C)cc12	108	-2	113	-37
90	O=c1[nH]ncc(NCCCc2ccccc2)c1Cl	97	8	98	-16

Molecules shown so far with bromine (three):
cpd	compound	PV pol inh	Mtb MbtI inh	PV pol inh intensity	MenB inh
19	COc1ccc(Br)cc1C(=O)Nc1ccc(-c2nnc(-c3ccco3)o2)cc1	97	-29	103	-8
39	Cc1[nH]c2ccccc2c1C1(O)C(=O)N(CCc2ccccc2)c2ccc(Br)cc21 (configuration not stated)	103	-11	105	2
52	O=C1NC(=O)N(C2CCCCC2)C(=O)/C1=C/c1ccc(Br)cc1	100	34	96	-15

Additional entries
cpd	compound	PV pol inh	Mtb MbtI inh	PV pol inh intensity	MenB inh
91	O=C(Nc1cccnc1N1CCOCC1)c1cc2ccccc2oc1=O	102	-9	100	-33
92	CN1C(=O)N(C)C2C1N(C)S(=O)(=O)N2C (configuration not stated)	101	-6	99	-60
93	CC(=O)Nc1ccc(C(=O)CSc2nnc(-c3ccoc3)c(-c3ccoc3)n2)cc1	100	24	95	10
94	COc1ccc(Cl)cc1NC(=O)Cn1c(NCC(C)O)nc2ccccc21 (configuration not stated)	106	-8	107	-5
95	Cc1nc2ccccc2c(=O)n1-c1ccc2c(c1)OC(F)(F)O2	106	nt	107	-5
96	CCOC(=O)CSc1nnc2ccccn12	103	125	102	-2
97	O=C(CN1CCCCC1)N1N=C(c2cccs2)CC1c1ccc(O)cc1 (configuration not stated)	nt	-13	nt	-16
98	O=C1S/C(=C/c2ccccc2)C(=O)N1CO	102	6	109	-14
99	NC1=NC(=O)/C(=C/c2cccs2)S1	101	24	100	-26
100	O=C(CSc1nccn1-c1cccc(F)c1)N1CCN(c2ccc(O)cc2)CC1	103	20	97	-23
101	CN(CC(=O)NC1CCCC1)S(=O)(=O)c1cc(Br)cnc1N	106	4	104	-1
102	Cc1ccc(N2CC(NC(=O)N3CCN(c4ccc(F)cc4)CC3)CC2=O)cc1C (configuration not stated)	98	1	105	4
